# HIV Env fusion: HIV envelope-mediated fusion inhibition; HeLa-JRFL Env/CEM21 cell fusion, luciferase; inhibition, % at 12.3 µM; actives 1.1% (n = 360,000); AID 651610;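 active = mean replicate inhibition score of at least 50 and every replicate individually at or above 50; inconclusive = only one of the two criteria met; inactive = mean below 50 and not all replicates reaching 50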;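 also: 0% = plate neutral controls and 100% = maraviroc near 300 nM; one replicate is shown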
# Yeast UUG start: alters start codon recognition fidelity in yeast | S. cerevisiae UUG-firefly luciferase reporter, luminescence/redox ratio | activity score, % at 18.7 µM | actives 0.13% (n = 350,000);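 active = replicate mean at a twofold rise or more, about +100% in these data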;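 also: firefly luciferase made from a UUG start codon reports start codon fidelity; reporter light over untreated wells divided by growth signal over untreated wells; some hits fall short of that in this replicate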
# The depositor's hits bear a star; ? = inconclusive; [ ] = another dose, or the depositor's remark. A portion of the library, so the mix of outcomes need not match the whole.
1	COc1ccc(S(=O)(=O)Nc2ccc3c(c2)C(=O)N([C@H](C)CO)C[C@H](C)[C@H](CN(C)C(=O)CCCN(C)C)OCCCC[C@H](C)O3)cc1
2	CN1C(=O)c2cc(NC(=O)Nc3ccccc3)ccc2OC[C@@H]2O[C@H](CC(=O)NC3CCC3)CC[C@@H]21
3	O=C(C[C@H]1C=C[C@H](NC(=O)C2CC2)[C@@H](CO)O1)NCc1ccccc1Cl
4	C[C@@H]1CN([C@@H](C)CO)C(=O)c2cccc(NC(=O)Nc3ccccc3)c2O[C@@H]1CN(C)S(=O)(=O)c1ccccc1
5	COc1ccc(NC(=O)Nc2ccc3c(c2)C(=O)N([C@H](C)CO)C[C@H](C)[C@@H](CN(C)Cc2ccc(C(F)(F)F)cc2)OCCCC[C@H](C)O3)cc1

assay / compound	1	2	3	4	5
HIV Env fusion	-14[16.7 µM]	9[16.7 µM]	-4[16.7 µM]	-11[16.7 µM]	7[16.7 µM]
Yeast UUG start	10	13	-10	6	2

6	C[C@@H]1CCCCO[C@@H](CN(C)Cc2ccc(C(F)(F)F)cc2)[C@@H](C)CN([C@H](C)CO)C(=O)c2cc(NC(=O)Nc3cccc4ccccc34)ccc2O1
7	C[C@@H]1CN([C@@H](C)CO)C(=O)Cc2cc(NC(=O)Nc3ccccc3)ccc2O[C@@H]1CN(C)C(=O)Nc1ccccc1
8	O=S(=O)(N[C@@H]1CC[C@@H](CCn2cc(-c3cccnc3)nn2)O[C@H]1CO)c1ccc(Cl)cc1
9	Cc1ccc(S(=O)(=O)N(C)C[C@@H]2OCCCC[C@H](C)Oc3ccc(N(C)C)cc3C(=O)N([C@@H](C)CO)C[C@H]2C)cc1
10	C[C@@H]1CN([C@@H](C)CO)C(=O)c2cc(C#C[C@@H](C)O)cnc2O[C@@H]1CN(C)C(=O)c1ccccc1F

assay / compound	6	7	8	9	10
HIV Env fusion	32[16.7 µM]	8[16.7 µM]	5[16.7 µM]	-25[16.7 µM]	6[16.7 µM]
Yeast UUG start	-16	-8	-11	0	4

# In a second layout: results already given
nr | structure | HIV Env fusion | Yeast UUG start
7 | C[C@@H]1CN([C@@H](C)CO)C(=O)Cc2cc(NC(=O)Nc3ccccc3)ccc2O[C@@H]1CN(C)C(=O)Nc1ccccc1 | 8[16.7 µM] | -8
8 | O=S(=O)(N[C@@H]1CC[C@@H](CCn2cc(-c3cccnc3)nn2)O[C@H]1CO)c1ccc(Cl)cc1 | 5[16.7 µM] | -11
9 | Cc1ccc(S(=O)(=O)N(C)C[C@@H]2OCCCC[C@H](C)Oc3ccc(N(C)C)cc3C(=O)N([C@@H](C)CO)C[C@H]2C)cc1 | -25[16.7 µM] | 0
10 | C[C@@H]1CN([C@@H](C)CO)C(=O)c2cc(C#C[C@@H](C)O)cnc2O[C@@H]1CN(C)C(=O)c1ccccc1F | 6[16.7 µM] | 4

# (list continues)
11	COCC(=O)Nc1ccc2c(c1)C(=O)N(C)C[C@H](OC)[C@@H](C)CN(CCC(F)(F)F)[C@@H](C)CO2
12	COc1ccc(NC(=O)Nc2cccc3c2O[C@@H](CN(C)CC2CC2)[C@H](C)CN([C@H](C)CO)C3=O)cc1
13	C[C@@H]1CN([C@H](C)CO)C(=O)Cc2cc(NC(=O)CCCCCC(=O)Nc3ccccc3N)ccc2O[C@H]1CN(C)C(=O)Nc1ccccc1
14	C[C@@H]1CN([C@@H](C)CO)C(=O)c2cc(NC(=O)Nc3ccccc3)ccc2O[C@H]1CN(C)Cc1ccccc1
15	C[C@H]1CN([C@@H](C)CO)C(=O)c2cc(NC(=O)CCC(F)(F)F)ccc2O[C@@H]1CN(C)C(=O)Nc1ccc2c(c1)OCO2

assay / compound	11	12	13	14	15
HIV Env fusion	-14[16.7 µM]	-9[16.7 µM]	0[16.7 µM]	6[16.7 µM]	-15[16.7 µM]
Yeast UUG start	-8	8	17	1	8

16	C[C@H](CO)N1C[C@H](C)[C@@H](CN(C)Cc2ccc(-c3ccccc3)cc2)Oc2ccc(NC(=O)Nc3ccc4c(c3)OCO4)cc2C1=O
17	CCNC(=O)C[C@@H]1CC[C@@H]2[C@H](COc3ccc(NC(=O)Nc4c(C)noc4C)cc3C(=O)N2C)O1
18	C[C@@H]1CCCCO[C@@H](CN(C)CC2CCCCC2)[C@H](C)CN([C@H](C)CO)C(=O)c2cc(NS(=O)(=O)c3ccccc3)ccc2O1
19	C[C@@H]1CCCCO[C@@H](CN(C)C(=O)Nc2ccccc2)[C@@H](C)CN([C@H](C)CO)C(=O)c2cc(NS(=O)(=O)c3cccs3)ccc2O1
20	C[C@H]1CCCCO[C@@H](CN(C)Cc2ccncc2)[C@@H](C)CN([C@@H](C)CO)C(=O)c2cc(NC(=O)Nc3ccc4c(c3)OCO4)ccc2O1

assay / compound	16	17	18	19	20
HIV Env fusion	14[16.7 µM]	-9[16.7 µM]	-13[16.7 µM]	25[16.7 µM]	?
Yeast UUG start	2	9	33	10	4

21	C[C@@H]1CN([C@H](C)CO)S(=O)(=O)c2ccc(-c3cncnc3)cc2O[C@@H]1CN(C)C(=O)NC1CCCC1
22	CCNC(=O)C[C@@H]1C=C[C@H](NC(=O)NC2CCCCC2)[C@@H](CO)O1
23	C[C@@H]1CN([C@@H](C)CO)C(=O)c2cc(NC(=O)C3CCCCC3)ccc2O[C@@H](C)CCCCO[C@H]1CN(C)C(=O)Cc1ccccc1
24	C[C@H]1CN([C@@H](C)CO)C(=O)Cc2cc(NC(=O)Nc3cccc4ccccc34)ccc2O[C@@H]1CN(C)Cc1ccc(C(F)(F)F)cc1
25	CNC[C@H]1Oc2ccc(NS(=O)(=O)c3c(C)noc3C)cc2C(=O)N([C@@H](C)CO)C[C@H]1C

assay / compound	21	22	23	24	25
HIV Env fusion	-12[16.7 µM]	-5[16.7 µM]	10[16.7 µM]	23[16.7 µM]	5[16.7 µM]
Yeast UUG start	-12	-23	3	1	1

26	C[C@H]1CN([C@@H](C)CO)C(=O)Cc2cc(NC(=O)Nc3ccc4c(c3)OCO4)ccc2O[C@@H]1CN(C)Cc1ccc(Oc2ccccc2)cc1
27	C/C=C/c1cnc2c(c1)C(=O)N([C@@H](C)CO)C[C@H](C)[C@@H](CN(C)C(=O)Cc1ccccn1)O2
28	Cc1ccc(S(=O)(=O)N(C)C[C@@H]2OCCCC[C@@H](C)Oc3ccc(NC(=O)Nc4ccccc4)cc3C(=O)N([C@@H](C)CO)C[C@@H]2C)cc1
29	Cc1ccc(-c2ccc3c(c2)O[C@@H](CN(C)S(C)(=O)=O)[C@H](C)CN([C@@H](C)CO)S3(=O)=O)cc1
30	C[C@@H]1CN([C@@H](C)CO)C(=O)c2cc(-c3cccnc3)cnc2O[C@H]1CN(C)C(=O)C1CC1

assay / compound	26	27	28	29	30
HIV Env fusion	-1[16.7 µM]	0[16.7 µM]	3[16.7 µM]	18[16.7 µM]	-2[16.7 µM]
Yeast UUG start	17	-5	-21	4	-4

31	O=C(C[C@H]1CC[C@@H](NS(=O)(=O)c2ccc(F)cc2)[C@H](CO)O1)NC1CCCCC1
32	C[C@H]1CN([C@@H](C)CO)S(=O)(=O)c2ccc(-c3ccncc3)cc2O[C@@H]1CN(C)Cc1ccncc1
33	C[C@@H]1CN([C@H](C)CO)C(=O)c2cc(/C=C/c3ccccc3)cnc2O[C@H]1CN(C)S(=O)(=O)c1ccccc1
34	C[C@H](CO)N1C[C@H](C)[C@H](CN(C)C(=O)NC2CCCCC2)Oc2ccc(NC(=O)CCC(F)(F)F)cc2CC1=O
35	COCC(=O)Nc1ccc2c(c1)C(=O)N(C)[C@H]1CC[C@@H](CC(=O)NC3CCCC3)O[C@H]1CO2

assay / compound	31	32	33	34	35
HIV Env fusion	-4[16.7 µM]	5[16.7 µM]	-2[16.7 µM]	4[16.7 µM]	45[16.7 µM]
Yeast UUG start	-13	-12	15	3	-32

36	Cn1nc(C(C)(C)C)cc1NC(=O)C1(C)CCN1C(=O)CCc1ccccc1 (stereo not given)
37	O=C(C[C@H]1C=C[C@@H](NC(=O)Nc2ccc3c(c2)OCO3)[C@H](CO)O1)NCc1ccccc1
38	COc1ccc(S(=O)(=O)Nc2cccc3c2O[C@H](CN(C)Cc2ccc(Oc4ccccc4)cc2)[C@@H](C)CN([C@@H](C)CO)C3=O)cc1
39	C[C@@H]1CN([C@H](C)CO)C(=O)c2cccc(NS(=O)(=O)c3ccc(F)cc3)c2O[C@@H]1CN(C)C(=O)Nc1ccc(F)cc1
40	C[C@@H]1CN([C@H](C)CO)C(=O)c2cc(-c3ccccc3)cnc2O[C@H]1CN(C)Cc1ccccn1

assay / compound	36	37	38	39	40
HIV Env fusion	10	-10[16.7 µM]	17[16.7 µM]	-13[16.7 µM]	9[16.7 µM]
Yeast UUG start	0	-12	1	7	-21

41	O=C(C[C@H]1CC[C@H](NC(=O)Nc2ccc(F)cc2)[C@@H](CO)O1)NCc1ccccn1
42	C[C@@H]1CN([C@@H](C)CO)C(=O)c2cccc(NC(=O)Nc3ccc(C(F)(F)F)cc3)c2O[C@H]1CN(C)Cc1ccccc1
43	COC(=O)C[C@@H]1C=C[C@@H](NS(=O)(=O)c2ccccc2F)[C@H](CO)O1
44	C[C@@H]1CCCCO[C@H](CN(C)S(=O)(=O)c2ccc(Cl)cc2)[C@H](C)CN([C@@H](C)CO)C(=O)c2cc(NC(=O)Nc3ccccc3)ccc2O1
45	C[C@H](CO)N1C[C@H](C)[C@@H](CN(C)C(=O)NC2CCCCC2)Oc2ncc(C#CCN(C)C)cc2C1=O

assay / compound	41	42	43	44	45
HIV Env fusion	-26[16.7 µM]	30[16.7 µM]	13[16.7 µM]	16[16.7 µM]	29[16.7 µM]
Yeast UUG start	-17	9	2	14	4

46	O=C(NCC[C@H]1CC[C@H](NS(=O)(=O)Cc2ccccc2)[C@@H](CO)O1)C1CCOCC1
47	CC(C)CC#Cc1cnc2c(c1)C(=O)N([C@@H](C)CO)C[C@@H](C)[C@H](CN(C)CC1CCOCC1)O2
48	CS(=O)(=O)Nc1ccc2c(c1)[C@H]1C[C@@H](CC(=O)NCC(F)(F)F)O[C@H](CO)[C@H]1O2
49	COc1ccc(NC(=O)N(C)C[C@@H]2Oc3c(NC(=O)C4CC4)cccc3C(=O)N([C@@H](C)CO)C[C@@H]2C)cc1
50	COc1ccc(CN(C)C[C@@H]2OCCCC[C@@H](C)Oc3ccc(NC(=O)Cc4ccccc4)cc3C(=O)N([C@H](C)CO)C[C@@H]2C)cc1

assay / compound	46	47	48	49	50
HIV Env fusion	16[16.7 µM]	6[16.7 µM]	-49[16.7 µM]	-16[16.7 µM]	-12[16.7 µM]
Yeast UUG start	11	6	-6	-3	5

51	C[C@@H]1CN([C@@H](C)CO)C(=O)c2cc(C3=CCCCC3)cnc2O[C@@H]1CN(C)C(=O)Nc1cccc(F)c1
52	C[C@@H]1CN([C@H](C)CO)C(=O)c2cccc(NC(=O)C3CC3)c2O[C@@H]1CN(C)Cc1ccncc1
53	CC(C)NC(=O)N(C)C[C@H]1Oc2ccc(NC(=O)Nc3cccc4ccccc34)cc2CC(=O)N([C@@H](C)CO)C[C@@H]1C
54	C[C@H](CO)N1C[C@H](C)[C@@H](CN(C)S(=O)(=O)c2cccs2)OCCCC[C@H](C)Oc2ccc(NS(=O)(=O)c3cn(C)cn3)cc2C1=O
55	CC(C)NC(=O)N[C@@H]1C=C[C@H](CC(=O)N2CCCCC2)O[C@@H]1CO

assay / compound	51	52	53	54	55
HIV Env fusion	-32[16.7 µM]	-6[16.7 µM]	-2[16.7 µM]	-17[16.7 µM]	4[16.7 µM]
Yeast UUG start	0	13	27	-2	-18

56	COc1ccc(-c2ccc3c(c2)O[C@H](CN(C)CC2CCOCC2)[C@H](C)CN([C@@H](C)CO)S3(=O)=O)cc1
57	O=C(N[C@H]1C=C[C@@H](CC(=O)N2CCOCC2)O[C@H]1CO)c1cccc(F)c1
58	O=C(Nc1ccc2c(c1)[C@H]1C[C@H](CC(=O)N3CCOCC3)O[C@H](CO)[C@H]1O2)C1CCOCC1
59	C[C@@H]1CCCCO[C@@H](CN(C)Cc2ccncc2)[C@@H](C)CN([C@@H](C)CO)C(=O)c2cc(NC(=O)Nc3ccc4c(c3)OCO4)ccc2O1
60	O=C(N[C@H]1CC[C@@H](CCNS(=O)(=O)c2ccc(Cl)cc2)O[C@@H]1CO)c1cccnc1

assay / compound	56	57	58	59	60
HIV Env fusion	15[16.7 µM]	12[16.7 µM]	11[16.7 µM]	7[16.7 µM]	-16[16.7 µM]
Yeast UUG start	13	4	2	7	-4

61	C[C@H]1CN([C@@H](C)CO)C(=O)c2cc(-c3cccc(F)c3)cnc2O[C@H]1CN(C)C(=O)Nc1ccccc1F
62	C[C@@H]1CN([C@@H](C)CO)C(=O)c2cc(NS(=O)(=O)c3ccccc3)ccc2O[C@@H](C)CCCCO[C@H]1CN(C)S(=O)(=O)c1cccs1
63	C[C@H](CO)N1C[C@H](C)[C@H](CN(C)S(=O)(=O)c2cn(C)cn2)Oc2ccc(NS(=O)(=O)c3ccccc3)cc2CC1=O
64	N#C[C@H]1[C@@H](c2ccccc2)[C@H](CO)N1C(=O)c1cccnc1
65	C[C@H](CO)N1C[C@H](C)[C@H](CN(C)C(=O)CN(C)C)Oc2ncc(C3=CCCC3)cc2C1=O
66	O=C(C[C@@H]1CC[C@H]2NC[C@@H](O)COC[C@@H]2O1)NCCN1CCCCC1
67	COc1ccc(NC(=O)N(C)C[C@H]2Oc3ncc(C#CC(C)C)cc3C(=O)N([C@H](C)CO)C[C@H]2C)cc1

assay / compound	61	62	63	64	65	66	67
HIV Env fusion	8[16.7 µM]	-26[16.7 µM]	3[16.7 µM]	-1[16.7 µM]	-7[16.7 µM]	9[16.7 µM]	7[16.7 µM]
Yeast UUG start	4	16	0	-11	2	-24	23
